# VDR inhibitor: Inhibitors of the vitamin D receptor (VDR): qHTS; Vitamin D3 receptor (Homo sapiens), P11473; VDR-SRC2-3 peptide fluorescence polarization, 2 h; Potency, µM, for the others: max response, negative = inhibition, most hits filed as inhibitors; 0.93% of 400,000 active; AID 504847, 2011; active means well fitted inhibition curve with a large enough effect; inconclusive means small, poorly fitted or top-dose-only effect, or another doubt; inactive means no such curve, though single readings can be large or run the other way; further: series mostly up to about 120 µM
# Target sequence (P11473 whole entry, looked up): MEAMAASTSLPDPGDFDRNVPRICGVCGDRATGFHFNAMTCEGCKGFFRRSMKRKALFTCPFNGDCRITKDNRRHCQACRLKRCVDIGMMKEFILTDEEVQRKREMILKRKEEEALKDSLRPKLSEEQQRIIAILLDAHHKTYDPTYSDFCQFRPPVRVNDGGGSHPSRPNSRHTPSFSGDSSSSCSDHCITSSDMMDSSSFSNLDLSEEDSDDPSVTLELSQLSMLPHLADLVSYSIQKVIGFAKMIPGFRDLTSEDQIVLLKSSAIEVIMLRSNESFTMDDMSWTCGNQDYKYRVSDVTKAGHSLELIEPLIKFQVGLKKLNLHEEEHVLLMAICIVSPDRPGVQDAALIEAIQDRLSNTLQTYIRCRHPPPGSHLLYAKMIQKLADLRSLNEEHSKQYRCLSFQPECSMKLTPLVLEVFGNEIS
#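 Measured by FP: displacement of SRC2-3 coactivator peptide from VDR by library compounds, following a two-hour ambient incubation.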
# Starred values were filed as active, the others as inactive; ? = inconclusive; & = joins results of further samples. On the % scale 0 is the no-effect control and ±100 the full control effect; potency means the concentration at half of the fitted maximal effect.
SMILES,VDR inhibitor
Cc1ccc(S(=O)(=O)N2CCC[C@H]2C(=O)Nc2ccccc2Cl)cc1,-1.5%
CSc1ncccc1C(=O)Nc1nc2c(C)cccc2s1,4.2%
COC(=O)[C@@]1(Cc2ccccc2)[C@H]2C(=O)N(C)C(=O)[C@H]2[C@H]2CN=C(SCC3CC3)N21,7.2%
O=C(NCCNC(=O)c1ccccn1)c1ccc(F)cc1,-20.8%
COc1ccccc1CCN=C(N)NS(=O)(=O)c1ccccc1F,-23.2%
C=CCc1c(C)[nH]c2ccc(C)cc2c1=O,-0.6%
CCSc1nc2c(c(=O)[nH]c(=O)n2C)n1CC(O)COc1ccc(Cl)cc1 (stereo not drawn),-12.3%
CCc1ccc(NC(=O)COC(=O)c2ccc(Cl)c(S(=O)(=O)N3CCCCCC3)c2)cc1,3.5%
Cn1c(SCC(=O)Nc2cccc(O)c2)nnc1-c1ccc(S(=O)(=O)N2CCOCC2)cc1,-9.3%
CCC1(c2ccccc2)NC(=O)N(CC(=O)Nc2cccc(C#N)c2)C1=O (stereo not drawn),20.6%
CCC1(c2ccc(Cl)cc2)NC(=O)N(CC(=O)NC2CCCC(C)C2C)C1=O (stereo not drawn),0.0%
O=C(CCCCl)Nc1c2c(nn1-c1ccccc1)CSC2,0.1%
O=C(CSc1nnc(-c2cccnc2)n1Cc1ccccc1)N1CCOCC1,2.8%
COc1ccc2c(c1)CCc1cc(C(=O)N3CCN(c4ccc(N5CCOCC5)nn4)CC3)sc1-2,-3.7%
COc1ccc(/C=C2/Sc3ccc(C(=O)N4CCOCC4)cc3NC2=O)cc1OC,-8.0%
Cc1ccc(-c2nc(-c3ccc(Cl)cc3)sc2CC(=O)O)c(C)c1,-17.9%
Cc1ccc(S(=O)(=O)NCCNC(=O)C2CCCNC2=O)cc1 (stereo not drawn),2.3%
O=C(NCCOC(=O)c1ccc(Cl)cc1)c1cccnc1,-7.9%
COc1ccccc1NC(=O)C(C)N1C(=O)C2CCCCC2C1=O (stereo not drawn),9.8%
CN(c1ccccc1)c1ccc(/C=N/NC(=O)CC#N)cc1,?
O=C(Nc1ccccc1)c1ncoc1-c1ccc(Cl)cc1,-21.9%
COc1ccccc1C1CC(=O)Oc2cc(C)cc(C)c21 (stereo not drawn),2.3%&-4.0%
O=[N+]([O-])c1cccc2ncccc12,12.6µM*
COC(=O)C1=C(C)N(C(C)C)C(=O)C1(NC(=O)c1ccccc1OC)C(F)(F)F (stereo not drawn),4.6%
Cc1ccc(S(=O)(=O)N2CCC(C(=O)N3CCC[C@H]3C(=O)NCc3ccccc3)CC2)cc1,-2.5%
CS(=O)(=O)N(CC(=O)NCCSC1CCCCC1)c1ccc2c(c1)OCO2,23.9%
O=C(NCN1C(=O)C2C3C=CC(C3)C2C1=O)OC1CCCCC1 (stereo not drawn),-7.9%
CC(=O)Nc1c(O)nc(SCC(=O)Nc2sc3c(c2C#N)CCCCCC3)[nH]c1=O,-17.1%
COc1ccc(C(=O)NCC(C)NC(=O)c2ccc(OC)c(OC)c2)cc1OC (stereo not drawn),-1.0%
CN(C(=O)c1ccoc1)c1ccccc1I,-11.1%
COc1ccc(CCNC(=O)C/C(C)=N/NC(=O)C2CCCCC2)cc1OC,14.2%
O=C1c2ccccc2[C@@H]2C[C@@H](O)[C@H](Nc3cccc(Cl)n3)CCN12,9.2%
O=C(COc1ncnc2ccccc12)c1ccc(Cl)cc1,-0.7%
O=C(CN1CCN(Cc2ccc(F)cc2)CC1)NCCc1ccccc1,?
C/C(=N\NC(=S)NCc1ccccc1)c1ccccc1F,-13.5%
CCC(=O)c1ccc(OCC(=O)Nc2cccc(S(=O)(=O)N(C)c3ccccc3)c2)cc1,-0.7%
O=C(CCCc1ccccc1)NCCCc1ccccc1,-22.5%
Cc1ccccc1/C(N)=N/OC(=O)c1ccc(F)cc1,-13.1%
O=C(/C=C/c1ccc(F)cc1)N1CCN(Cc2ccccc2)CC1,-1.1%
Cc1ccc(S(=O)(=O)NCCCCCC(=O)NCCc2ccccc2)cc1,-2.1%
CCOC(=O)CN(C(=O)CN1CCC(n2nnc3cc(C)ccc32)CC1)c1ccccc1,20.3%
O=C(CCS(=O)(=O)c1ccccc1F)Nc1ccc(N2CCN(Cc3ccccc3)CC2)cc1,4.2%
Cc1ccc(CSc2nc3ccsc3c(=O)n2CCC(C)C)cc1,12.3%
CC(=O)NNc1ncnc2c1cnn2-c1ccc(C)cc1,-7.7%
Cc1ccc(-c2c(C(=O)NCc3ccccc3)oc(=O)c3ccccc23)cc1,13.5%&-8.6%
CCc1sc(C(=O)Nc2ncccc2C)cc1C,-17.3%
CCOC(=O)N1CCN(CCC(=O)Nc2ccc(OC)cc2OC)CC1,9.2%
O=C(Nc1ccccc1)c1cccc(N2C(=O)CCC2=O)c1,11.8%

# Part of the list above, with the structure last:
VDR inhibitor	smiles
4.2%	O=C(CCS(=O)(=O)c1ccccc1F)Nc1ccc(N2CCN(Cc3ccccc3)CC2)cc1
-1.1%	O=C(/C=C/c1ccc(F)cc1)N1CCN(Cc2ccccc2)CC1
9.2%	CCOC(=O)N1CCN(CCC(=O)Nc2ccc(OC)cc2OC)CC1

# Next part
SMILES,VDR inhibitor
Cc1ccn2cc(CCNS(=O)(=O)c3ccc4c(c3)CCCC4)nc2c1,-3.2%
O=C(COc1ccccc1F)Nc1ccc2nc(SCCOc3ccccc3)sc2c1,-0.8%
CCN(CC)S(=O)(=O)c1ccc(C(=O)Oc2coc(CSc3nc(C)cc(C)n3)cc2=O)cc1,?
COc1ccc2cc(C3C(C#N)=C(N)OC(C)=C3C(C)=O)c(Cl)nc2c1 (stereo not drawn),-0.7%
OCCC1CN(Cc2cnc(-c3ccc(Cl)cc3)nc2)CCN1C1CCCC1 (stereo not drawn),-11.0%
Cc1ccc(S(=O)(=O)N2CCN(c3nc(-c4ccc(F)cc4)nc4cc(Cl)ccc34)CC2)cc1,8.0%
COc1ccc(S(=O)(=O)N2CCNC(=O)CC2)cc1,-4.9%
Fc1ccc(CSc2nnc3ccc(-c4ccncc4)nn23)cc1,-8.8%
O=C1CC(N2CCOCC2)C(=O)N1CCN1C(=O)CC(N2CCOCC2)C1=O (stereo not drawn),10.4%
Cc1ccc(S(=O)(=O)n2nc(OC(=O)c3ccco3)cc2N)cc1,-7.8%
Cc1cccc(NC(=S)N2CCC(C(=O)c3ccc(F)cc3)CC2)c1C,-7.2%
Cc1cccc(NC(=O)Nc2ccc3c(c2)OCO3)n1,-3.8%
CC(C)CCn1nnnc1C(C(C)C)N1CCC(C(N)=O)CC1 (stereo not drawn),5.5%
CCOc1ccc(CNC(=O)c2ccc3oc(=O)n(Cc4ccccc4)c3c2)cc1,2.5%
CCn1cc(C(=O)N2CCN(c3ccccc3F)CC2)c(=O)c2cc(S(=O)(=O)N(C)C)ccc21,-13.1%
Cc1nc(S/C(=C/c2ccc(-c3cc(Cl)ccc3C)o2)C(=O)O)n[nH]1,-2.9%
Cc1cc(NC(=O)CCC(=O)N(c2cccc(F)c2)C(C(=O)NC2CCCC2)c2ccccc2)no1 (stereo not drawn),-3.8%
CC(C(=O)Nc1ccc2c(c1)OCO2)c1ccc([N+](=O)[O-])cc1 (stereo not drawn),4.6%
O=C1c2cccnc2-c2ncccc21,5.0%
CCOc1ncccc1C(=O)N(C)CC(=O)Nc1ccc(C)cc1,-17.5%
Cc1nc2ccc(S(=O)(=O)NCC(=O)NCc3ccc4c(c3)OCO4)cc2s1,-3.4%
C=CCn1c(CNS(=O)(=O)c2ccc(Br)cc2)nnc1SC,7.4%
CC(C)CCNC(=O)[C@H](CSCc1ccccc1)N1Cc2ccccc2C1=O,26.7%
CCn1ncc(Br)c1C(=O)Nc1cc(C)ccc1F,26.3%
COc1cc(C(=O)N2CCC(c3nc(-c4cccnc4)no3)CC2)cc(OC)c1OC,6.6%
O=C1c2ccccc2C(=O)N1Cc1cccnc1,4.1%
COc1ccc(OC)c(NC(=O)Nc2cc(NC(=O)Nc3cc(OC)ccc3OC)c(C)nc2C)c1,-2.6%
COc1ccc(C(=O)Nc2ccnn2C2CCN(Cc3cccnc3)CC2)cc1,-7.3%
O=C(Nc1nc(-c2cccc([N+](=O)[O-])c2)cs1)C(c1ccccc1)c1ccccc1,22.2%
O=C(Nc1ccnn1C1CCN(Cc2ccc(CO)o2)CC1)c1ccc2c(c1)OCO2,-8.7%
COc1ccccc1CN(C(=O)c1ccco1)C(C(=O)NC1CCCC1)c1ccncc1 (stereo not drawn),1.6%
O=C1c2ccccc2C(=O)c2c1cccc2-n1nnc2ccccc21,4.6%
COc1ccc(-n2c(=O)c3c(c4cc(OC)ccc4n3C)n(Cc3cc(C)ccc3C)c2=O)cc1,2.9%
CCOc1ccc(NC(=O)CCS(=O)(=O)c2cccc3nonc23)cc1,-6.1%
CC(=O)Oc1cccc(N2C(=O)C3C4C=CC(C4)C3C2=O)c1 (stereo not drawn),0.7%
Cc1ccc(NC(=O)Cn2c(=O)n(CCCS(=O)(=O)C3CCCCC3)c(=O)c3ccccc32)cc1F,0.3%
Cc1cccc(C)c1NC(=O)CN(C)S(=O)(=O)c1ccc(-c2ccc(=O)[nH]n2)s1,-10.0%
COc1cc(C2/C(=C(/O)c3ccccc3)C(=O)C(=O)N2c2ccccn2)ccc1O (stereo not drawn),2.7%
O=C(CC1C(=O)NCCN1Cc1ccccn1)NCCc1ccccc1F (stereo not drawn),-20.8%
O=S(c1cc(Cl)cc(Cl)c1O)c1cc(Cl)cc(Cl)c1O,39.8µM*
Oc1ccc(C(c2nnnn2C2CCCCC2)N2CCOCC2)cc1 (stereo not drawn),-7.7%
Cc1cccc(NC(=O)NNC(=O)c2nn(C)cc2Br)c1,3.8%
CC(C)N1CC23C=CC(O2)C(C(=O)OCc2ccccc2)C3C1=O (stereo not drawn),-8.2%
O=C(CSc1nc(=O)n(Cc2ccco2)c2c1CCC2)NCc1ccc(Cl)cc1,3.2%
Fc1ccc(-n2c(-c3ccc4c(c3)OCO4)n[nH]c2=S)cc1Cl,-4.0%
CCOc1ccc(N(C(=O)CNC(=O)c2ccco2)C(C(=O)NC2CCCC2)c2ccncc2)cc1 (stereo not drawn),2.0%
O=C(Cc1ccccc1)N1CCN=C1SCc1cccc([N+](=O)[O-])c1,-8.8%
Cc1ccc(C(=O)N(c2ccccn2)C(C)c2ccco2)cc1 (stereo not drawn),3.5%
Cc1ccc(-c2c3c(=O)n(C)c(=O)n(C)c3cn2Cc2ccccc2)cc1,-16.6%
O=C(c1ccco1)N1CCN(Cc2nnnn2C2CCCCC2)CC1,-0.3%
O=Cc1ccccc1-c1cn(CN2C(=O)c3ccccc3C2=O)nn1,-8.5%
COc1ccc(C(=O)OCC(=O)Nc2c(C)n(C)n(-c3ccccc3)c2=O)cc1,13.9%
Cc1c(C#N)c2ccccc2n1C,17.2%
O=C(Cc1c[nH]c2ccccc12)NNC(=O)c1ccccc1,-7.7%
Cn1nc(C(=O)Nc2cccc(Cl)c2)cc1C(=O)Nc1cccc(Cl)c1,9.5%
O=C(NCC1CCCO1)c1cc(C(=O)C2CC2)c[nH]1 (stereo not drawn),5.6%
Cc1noc(C)c1COc1ccc(C(=O)N2CCN(S(=O)(=O)c3cccc(F)c3)CC2)cc1,6.2%
O=C(COC(=O)C1CCCCC1)Nc1ccc(N2CCCCC2)cc1,-12.1%
Cc1oc(-c2ccccc2Cl)nc1CS(=O)CC(=O)NC1CC1 (stereo not drawn),-16.6%
COc1ccc(OCCn2ccnc2C)cc1,-3.6%

# Quoted from the entries so far, six compounds:
SMILES,VDR inhibitor
Cn1nc(C(=O)Nc2cccc(Cl)c2)cc1C(=O)Nc1cccc(Cl)c1,9.5%
O=C(NCC1CCCO1)c1cc(C(=O)C2CC2)c[nH]1 (stereo not drawn),5.6%
Cc1noc(C)c1COc1ccc(C(=O)N2CCN(S(=O)(=O)c3cccc(F)c3)CC2)cc1,6.2%
O=C(COC(=O)C1CCCCC1)Nc1ccc(N2CCCCC2)cc1,-12.1%
Cc1oc(-c2ccccc2Cl)nc1CS(=O)CC(=O)NC1CC1 (stereo not drawn),-16.6%
COc1ccc(OCCn2ccnc2C)cc1,-3.6%

# Next structures follow:
SMILES,VDR inhibitor
CS(=O)(=O)N1CC2CCCN2c2ccc(C(F)(F)F)cc21 (stereo not drawn),4.1%
O=C(CCCc1nc(-c2ccc(Cl)cc2)no1)NC1CCCC1,-6.4%
O=C(CSc1n[nH]c(-c2ccccc2)n1)c1ccc(O)c(O)c1,2.9%
Cn1ncc(Cl)c1C(=O)Nc1nnc(C2CC2)s1,-9.5%
CCOC(=O)C1(CCOc2ccccc2)CCN(Cc2cc(OC)c(O)cc2Cl)CC1,1.4%
Cc1ccccc1NC(=O)COc1ccc2c(c1)OC(C)(C)CC2=O,-9.6%
COCCCN(C(=S)NC(=O)C12CC3CC(CC(C3)C1)C2)c1c(N)n(Cc2ccccc2)c(=O)[nH]c1=O,7.1%
COc1ccc(-c2noc(N3CCC(C(=O)NCc4ccc(Cl)cc4)CC3)n2)cc1,-5.5%
O=C(CN1C(=O)C2CCCCC2C1=O)Nc1cc(C(F)(F)F)ccc1N1CCCC1 (stereo not drawn),5.1%
O=C(Nc1ccc(S(=O)(=O)Nc2ncccn2)cc1)C12CC3CC(CC(C3)C1)C2,14.2%
CCCCn1c(N)c(N(CCOC)C(=O)CN(C)S(=O)(=O)c2ccc(C)cc2)c(=O)[nH]c1=O,-7.9%
Cc1ccccc1Nc1c(-c2ccc(N3CCOCC3)cc2)nc2ccccn12,-6.3%
Cc1ccc(S(=O)(=O)NCC(C)n2cncn2)cc1C (stereo not drawn),-2.4%
COc1ccccc1NC(=O)N1CCCC1C(=O)NCc1ccc2c(c1)OCO2 (stereo not drawn),-3.0%
Cc1ccc(N2C(=O)CC(c3c[nH]c4ccccc34)C2=O)cc1 (stereo not drawn),0.0%
COc1ccc(CCc2nnc(CCC(=O)NCc3cnc4ccccn34)o2)cc1,10.0%
O=C(c1ccc(S(=O)(=O)NCC2CCCO2)cc1)N1CCN(c2cccc(Cl)c2)CC1 (stereo not drawn),-18.6%
CN(C)S(=O)(=O)c1cccc(NC(=O)COc2cccc3ccccc23)c1,-4.6%

# These rows are one share of the data; count on the stated rates, not on these rows.
